NPYLR7 ag: mosquito NPYLR7 agonism; HEK293T NPYLR7/Galpha15, GCaMP6s calcium fluorescence; activation, % at 10 µM; 0.15% of 270,000 active; AID 1259423; in the data active = activation above about 40%;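 also: 0% = vehicle and 100% = reference agonist at the receptor; some compounds past the cut are filed as inactive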
NPYLR7 ag max-min: second read-out of NPYLR7 ag, no call of its own (marks repeat the call); activation, %; measured here: Max-Min RFU normalised activation; some inactives read as strong as hits;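 span of the calcium signal over five minutes; 0% = vehicle and 100% = native peptide agonist; compound fluorescence can raise it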
* marks the source's active call; other numbers are inactive results; & = joins results of further samples. An excerpt (hit frequency here may not be typical).

smiles	NPYLR7 ag	NPYLR7 ag max-min
COc1ccc(C(=O)N(Cc2nc3cc(Cl)ccc3o2)C2CC2)c(OC)c1	3	-3
O=C(N1CCSCC1)C1(O)Cc2ccccc2C1	5	5
C(=NNc1nc2ccccc2o1)c1ccc(N2CCOCC2)s1	2	1
COc1ccc(C(=O)CSc2nc3sc(C)cc3c(=O)n2C)cc1	-7	-7
C=CCn1c(=NC(=O)c2ccc(N3C(=O)CCC3=O)cc2)sc2cccc(OC)c21	2	-1
CCc1ccc(C2Nc3ccccc3N=C3CC(c4ccccc4)CC(=O)C32)cc1 (stereo unspecified)	-4	-7
Cc1nccn1-c1ccccc1CNC1CCC2(CCNCC2)CC1	-2	-8
Fc1ccc(CN2CCCn3cccc3C2c2cccc(Oc3ccccc3)c2)cc1Cl (stereo unspecified)	23	21
CN(C)CCN(C)C(=O)c1ccc(-c2cccc(N(C)C)c2)nc1NCC1CC1	-1	-9
CCOC(=O)c1ccc(OC2CC3CCC(C2)N3C(=O)c2ccc(CSc3nnnn3C)cc2)cc1 (stereo unspecified)	11	0
Cn1c(SCC(=O)NC23CC4CC(CC(C4)C2)C3)nc2sc3c(c2c1=O)CCCC3	3	4
NCC1Cc2cc(-c3cnccn3)cc(Cl)c2O1 (stereo unspecified)	-2	2
Cc1ccccc1N1CCN(S(=O)(=O)c2ccc(F)cc2)CC1	1	-6
COc1ccc(C(N)CC(=O)N2CCc3c(ncnc3N(C)C)C2)cc1OC (stereo unspecified)	6	2
COc1ccc(C2CC(=O)C(C=Nc3cc(Cl)ccc3O)=C(O)C2)cc1 (stereo unspecified)	-5	-7
Cc1cc(S(=O)(=O)n2cc(-c3cccc(F)c3)c(N)n2)ccc1F	-4	-4
Cc1cc(C)cc(-c2ccc(C(N)=O)s2)c1	7	7
CCOC(=O)CCC(=O)N(CC(=O)N1CCc2sccc2C1c1ccc(C(C)(C)C)cc1)C1CC1 (stereo unspecified)	1	9
CCc1nc2ccc(C(=O)N(C)Cc3ccccc3)cn2c1N(C)Cc1nccn1C	-4	-6
O=C(NCc1ccc(F)cc1)c1cc2n(n1)CCN(Cc1c(Cl)cccc1Cl)C2=O	-8	-1
C=CCn1c(SCc2ccc(C(=O)NCc3ccc4c(c3)OCO4)cc2)nnc1-c1ccccc1[N+](=O)[O-]	1	14
CCOc1ccc(-c2cc(C(=O)NCc3ccc(F)c(Cl)c3)c3ccccc3n2)cc1	0	9
CCn1c(=O)c2c(nc3n2CC(C)=NN3Cc2cc(C)ccc2C)n(C)c1=O	4	0
CC(=O)NC1=NN(C(C)=O)C2(S1)C(=O)N(CCOc1ccccc1C)c1ccc(C)cc12 (stereo unspecified)	0	6
O=C(c1ccco1)N1CCN(Cc2cnn3cccnc23)CC1	3	-2
COc1ccc(-c2csc(-n3[nH]c(C)c(N=Nc4ccc(C)c([N+](=O)[O-])c4)c3=O)n2)cc1	-9	-9
Cc1c(Cl)c(C(=O)N2CCCC(O)(CO)CC2)nn1C (stereo unspecified)	0	0
NC(c1csc(Nc2cnccn2)n1)c1ccccc1Cl (stereo unspecified)	1	-1
CNCC(=O)NC(C)(C)c1cccc2ccccc12	3	6
CCSc1nc(CC(=O)NCc2ccccc2-n2cccn2)cs1	0	0
COc1ccc(N2C(=O)C(c3c(C)[nH]n(-c4ccc(F)cc4)c3=O)=C([n+]3cccc(C)c3)C2=O)cc1	-4	2
CCOC(=O)NC(O/N=C(/N)c1ccccc1)(C(=O)OCC)C(F)(F)F (stereo unspecified)	-2	-2
CN1CCCn2nc(C(=O)NCc3ccccc3-n3ccnc3)cc2C1	-2	-9
CC1(C(=O)NS(=O)(=O)c2ccccc2OC(F)(F)F)CCN1C(=O)Cc1cc(F)ccc1F (stereo unspecified)	4	0
COC(=O)c1ccc(Oc2ccc(Cl)cc2NC(=O)c2c(C)noc2C)cc1	12	4
COc1ccc(OCc2cc(C(=O)N3CCCCCC3)no2)c(Cl)c1	-1	-4
S=C(Nc1ccc(-n2cnnn2)cc1)NC1CC2CCC1C2 (stereo unspecified)	-2	-3
Clc1ccc(CN2CCC(Cc3ccc(-n4cccc4)cc3)CC2)cc1Cl	3	13
COc1ccc(OCCCN2C(=O)C(O)(CC(C)=O)c3ccccc32)cc1 (stereo unspecified)	-5	-7
Cc1ccc(-c2nc(-n3c(C)c4c(C)nnc(C)c4c3C)sc2C)cc1C	-10	-14
COCCNc1nc(Nc2ccc(C)c(C)c2)c2cnn(-c3ccccc3)c2n1	5	3
CCc1nc(N(CCOC)CCC(=O)NCc2cccc(C(F)(F)F)c2)c2ccc(Cl)cc2n1	13	22
CCCn1cc(CNC(=O)C2Cc3ccccc3CN2CC)cn1 (stereo unspecified)	19	9
O=C(c1ccc(-c2ccccc2Cl)o1)N1CCC(n2ccnc2)C1 (stereo unspecified)	19	5
CCN(CC)S(=O)(=O)c1ccc2c(c1)nc(SCc1ccc(Cl)cc1)n2C(C)C	-4	-5
COc1ccc2c(NCc3ccccc3)c(C#N)cnc2c1	-1	-4
Cc1nn(-c2ccccc2)c2ncc(C(=O)N3CCN(c4ccccc4F)CC3)c(Cl)c12	6	2
CCS(=O)C1CCCCC1NC(=O)CCc1ccc(Br)cc1F (stereo unspecified)	3	0
O=C(Cn1ccnc1)N1CCOc2c(O)cc(-c3cccc(Cl)c3)cc2C1	4	3
N#CCSc1[nH]c(=O)c(-c2nc(-c3ccccc3)cs2)cc1C#N	5&6	4&5

Further results follow:
smiles	NPYLR7 ag	NPYLR7 ag max-min
COc1ccc(-c2nc(SC3CCCC3)n[nH]2)cc1	-1	-1
COc1ccc(C(NC(=O)C2CCN(CCOc3ccc(Cl)cc3Cl)CC2)c2ccco2)cc1 (stereo unspecified)	22	10
CNc1ncccc1C(=O)N[C@H]1C[C@H]2C(=O)N(C)CC(=O)N2C1	4	1
COc1ccc2c(c1)sc(=NC(=O)CCS(=O)(=O)c1ccc(F)cc1)n2C	2	-1
COc1ccc(Cl)cc1NC(=O)CCC1CCCN(C(=O)c2cccc(N(C)C)c2)C1 (stereo unspecified)	-9	-17
O=C(O)CCc1cc(Cl)ccc1Br	-1&5	0&2
CCCn1c(C)c(C)n2c3c(=O)n(C(C)C(C)=O)c(=O)n(C)c3nc12 (stereo unspecified)	8	5
CCOc1ccc(C(C2Sc3nc(CC)nn3C2=O)N2CCN(C(C)=O)CC2)cc1 (stereo unspecified)	-2	-8
Cc1cccc(-n2nnc3c(=O)n(CC(=O)OCc4ccccc4)cnc32)c1	-1	-9
COC(=O)c1ccc(COC(CN2CCN(S(=O)(=O)c3c(C)nn(C)c3Cl)CC2)c2cccc(OC)c2)cc1 (stereo unspecified)	-6	-6
CC1ON=C(c2ccc(N(C)C)cc2)N(Cc2cccc(F)c2)C1=O (stereo unspecified)	13	7
COc1ccc(NC(=O)CSc2nc(=O)n(CCN3CCOCC3)c3c2CCCC3)c(OC)c1	-2	4
Cc1cccc(-c2nc3scc(CCNC(=O)/C=C/c4ccccc4)n3n2)c1	14	10
CC(Sc1n[nH]c(C(C)C)n1)C(=O)N1CCCC1 (stereo unspecified)	4	0
C=C1Sc2ccccc2N1C	13	10
COc1ccc(OC)c(C2CCCN2C(C(=O)N2CCOCC2)c2ccccc2)c1 (stereo unspecified)	5	4
Cc1ccc(NC(=O)CSc2nnc(N3CCOCC3)n2C2CC2)cc1	7	3
CCOC(=O)CNC(=O)CSc1c(C(C)C)cnc2c1c(=O)n(C)c(=O)n2C	8	14
CCOC(=O)C(CC)C(C)=NNC(=O)OC (stereo unspecified)	-1	-4
CC1CCCCN1S(=O)(=O)NC(c1ccccc1)c1nc2ccccc2n1C (stereo unspecified)	2	3
Cc1ccc(C2CCCCN2C(=O)Cc2c(C)nn(C(F)F)c2C)cc1 (stereo unspecified)	11	12
CCC(C)CS(=O)(=O)NC(=O)Cc1c[nH]c2ccc(F)cc12 (stereo unspecified)	-1	-2
COC(=O)c1sccc1S(N)(=O)=O	5	11
COc1cc(C(=O)N2CCCC(CCC(=O)N3CCN(C)CC3)C2)c2ccccc2n1 (stereo unspecified)	23	23
O=S(=O)(NCCCn1cncn1)c1ccc2c(c1)CCO2	3	0

Rewritten with two lines to a compound: three of the compounds above
The line under a structure holds: NPYLR7 ag | NPYLR7 ag max-min
- COc1ccc(NC(=O)CSc2nc(=O)n(CCN3CCOCC3)c3c2CCCC3)c(OC)c1
  -2 | 4
- Cc1cccc(-c2nc3scc(CCNC(=O)/C=C/c4ccccc4)n3n2)c1
  14 | 10
- CC(Sc1n[nH]c(C(C)C)n1)C(=O)N1CCCC1 (stereo unspecified)
  4 | 0

Additional compounds follow:
smiles	NPYLR7 ag	NPYLR7 ag max-min
CS(=O)(=O)Nc1cccc2c1CCN(C(=O)CSCc1ccc(C#N)cc1)C2	3	11
COc1cccc(Oc2cc(N3CCN(C(=O)c4cccc([N+](=O)[O-])c4)CC3)ncn2)c1	17	23
Cc1noc(C)c1CC(=O)Nc1ccnn1C1CCCCC1	8	4
CCc1nc2ccc(C(=O)N3CCN(C(=O)c4ccco4)CC3)cn2c1N(CCC(C)C)CCN(C)C	-4	-7
O=C(c1ccco1)N1CCN(Cc2cccn2-c2ncccn2)CC1	-11	-13
COc1cc2c(cc1-c1ccc(OC(F)(F)F)cc1)OCC(C)(C)CC2CO (stereo unspecified)	4	9
C=CCn1c(SCc2ccccc2OC)nnc1-c1cc(OC)cc(OC)c1	9	12
CC(C)Nc1nc(NC(C)C)nc(OCCNC(=O)COc2ccc(Cl)cc2Cl)n1	-1	-3
COc1cc(OC)c(S(=O)(=O)Nc2cccnc2)cc1Br	-1	4
COC(=O)Cc1c(C(=O)OC)sc(NC(=O)CCl)c1C(=O)OC	-6	-11
COc1ccc(C(=O)N(Cc2ccco2)Cc2cc(NC(=O)c3ccccc3Cl)ccc2N(C)C)cc1	1	10
CC1CCc2c(sc(N)c2C#N)C1 (stereo unspecified)	1	0
O=C1CC(N2CCN(Cc3ccccc3)CC2)C(=O)N1c1ccccc1 (stereo unspecified)	4	-2
CCn1cc(CN(Cc2nccn2C)CC(C)C)cn1	1	-5
COc1ccc(CCN2CC3=C(C2=O)C(c2ccc(Cl)c(Cl)c2)NC(=O)N3)cc1 (stereo unspecified)	1	17
CC(=O)Nc1nc(C23CC4CC(CC(C4)C2)C3)cs1	4	3
Cc1cc(Cl)ccc1OCc1nnc(-c2ccccc2Cl)o1	1	0
CCCS(=O)(=O)N1CC(=O)N(CCCc2ccccc2)CC(O)C1 (stereo unspecified)	22	25
CSc1nnc(C)c(=O)n1COC(=O)/C=C/c1ccccc1	0	-3
COCCn1c(N2CCCCCC2)nc2c1c(=O)[nH]c(=O)n2C	19	7
Cc1ccc(-n2c(SCc3ccc(F)cc3)nnc2C(Cc2ccccc2)NC(=O)c2cccc(Cl)c2)cc1 (stereo unspecified)	7	12
N#Cc1c(N)oc2c3c(c(O)cc12)C(=O)c1ccccc1C3=O	2	0
O=C(CN1C(=O)c2ccccc2C1=O)Nc1cccc(C(F)(F)F)c1	-3	-5
O=C(c1csc(-c2ccoc2)n1)N1CC2CCC1C2 (stereo unspecified)	-3	-3
COc1cc(C=Nc2ccc(I)cc2)ccc1OC(=O)c1ccco1	-6	-11

As a short view, some entries already given.
smiles	NPYLR7 ag	NPYLR7 ag max-min
N#Cc1c(N)oc2c3c(c(O)cc12)C(=O)c1ccccc1C3=O	2	0
O=C(CN1C(=O)c2ccccc2C1=O)Nc1cccc(C(F)(F)F)c1	-3	-5
O=C(c1csc(-c2ccoc2)n1)N1CC2CCC1C2 (stereo unspecified)	-3	-3
COc1cc(C=Nc2ccc(I)cc2)ccc1OC(=O)c1ccco1	-6	-11

Three entries out of the list, sorted by heavy-atom count, smallest number first:
smiles	NPYLR7 ag	NPYLR7 ag max-min
CC1CCc2c(sc(N)c2C#N)C1 (stereo unspecified)	1	0
CC(=O)Nc1nc(C23CC4CC(CC(C4)C2)C3)cs1	4	3
CC(C)Nc1nc(NC(C)C)nc(OCCNC(=O)COc2ccc(Cl)cc2Cl)n1	-1	-3

(next part)
smiles	NPYLR7 ag	NPYLR7 ag max-min
CC(=O)Nc1ccc(NC(=O)C(C2CCCC2)N2CCN(C(=O)c3cccs3)CC2)cc1 (stereo unspecified)	46	40
O=C1Nc2ccccc2N=C(c2ccccc2)C1=Cc1cccs1	-5	-8
Cc1cccc(CSc2nnc(CNC(=O)C(c3ccccc3)c3ccccc3)n2-c2ccc([N+](=O)[O-])cc2)c1	3	8
CCOc1ccc(-n2nnc(C(=O)NCC3CCCO3)c2C)cc1 (stereo unspecified)	2	6
COc1ccc(CC(=O)Nc2nc(-c3ccc4c(c3)OCO4)cs2)cc1	0	-4
COc1ccc(NC(=O)C2(C)CCN2Cc2ccc(OC)c3ccccc23)cc1OC (stereo unspecified)	-9	-11
CCOC(=O)N1CCN(c2nc(Nc3cc(C)ccc3C)c3nccnc3n2)CC1	7	12

Screening data deposited in PubChem BioAssay by Fisher Drug Discovery Resource Center.
